Mtb growth: M. tuberculosis H37Rv growth inhibitors, H37Rv strain (AID 1626); M. tuberculosis H37Rv growth inhibition; higher % means a stronger effect; inhibition, % at 10 µM; hits with a dose series show IC50 in µM; hit rate 0.95% among 220,000;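 active means confirmed in a dose series; inconclusive means inhibition above 80% but not taken into the dose series; inactive means below 80% or under 30% at every dose of the series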;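 further: bacteria incubated seven days before Alamar blue readout; 0% = bacteria only wells and 100% = bacteria with antibiotic wells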
Mtb betalactam: beta-lactam sensitization of Mtb H37Rv; M. tuberculosis H37Rv growth with meropenem, percent inhibition; hits of this screen are not shown here; inhibition, % at 25 µM; hit rate 0.27% among 330,000;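 active means about 74% or more and at least 40 points above the plate without the antibiotic, then above 30% in a dose series; inconclusive means first-round hits that could not be retested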;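 further: growth measured after seven days incubation then overnight dye step; 0% = bacteria only wells and 100% = bacteria with antibiotic; twin plates without the antibiotic show which effects depend on it; some results filed as inactive read as strong as hits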
YopH PTP inh: inhibitors of Yersinia enterocolitica YopH tyrosine phosphatase; hit rate 0.16% among 140,000; fluorescence Ex485/Em525; inhibition, %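 (about 10 µM by stock and volumes)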;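 active means inhibition of 50% or more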;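 further: controls were vehicle for no effect and minimum signal wells for full effect; inactives centre near -20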
RecA intein inh: Mtb RecA intein splicing inhibition. P9WHJ3. cell-free RecA intein splicing, fluorescence. inhibition, %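 (about 9 µM by stock and volumes)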. hit rate 0.75% among 290,000. AID 2221; in the data active means inhibition above about 30%; inconclusive means no clear call, values can overlap the other calls;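 further: 0% = vehicle wells and 100% = reference inhibitor control wells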
Target sequence (P9WHJ3 whole entry, looked up): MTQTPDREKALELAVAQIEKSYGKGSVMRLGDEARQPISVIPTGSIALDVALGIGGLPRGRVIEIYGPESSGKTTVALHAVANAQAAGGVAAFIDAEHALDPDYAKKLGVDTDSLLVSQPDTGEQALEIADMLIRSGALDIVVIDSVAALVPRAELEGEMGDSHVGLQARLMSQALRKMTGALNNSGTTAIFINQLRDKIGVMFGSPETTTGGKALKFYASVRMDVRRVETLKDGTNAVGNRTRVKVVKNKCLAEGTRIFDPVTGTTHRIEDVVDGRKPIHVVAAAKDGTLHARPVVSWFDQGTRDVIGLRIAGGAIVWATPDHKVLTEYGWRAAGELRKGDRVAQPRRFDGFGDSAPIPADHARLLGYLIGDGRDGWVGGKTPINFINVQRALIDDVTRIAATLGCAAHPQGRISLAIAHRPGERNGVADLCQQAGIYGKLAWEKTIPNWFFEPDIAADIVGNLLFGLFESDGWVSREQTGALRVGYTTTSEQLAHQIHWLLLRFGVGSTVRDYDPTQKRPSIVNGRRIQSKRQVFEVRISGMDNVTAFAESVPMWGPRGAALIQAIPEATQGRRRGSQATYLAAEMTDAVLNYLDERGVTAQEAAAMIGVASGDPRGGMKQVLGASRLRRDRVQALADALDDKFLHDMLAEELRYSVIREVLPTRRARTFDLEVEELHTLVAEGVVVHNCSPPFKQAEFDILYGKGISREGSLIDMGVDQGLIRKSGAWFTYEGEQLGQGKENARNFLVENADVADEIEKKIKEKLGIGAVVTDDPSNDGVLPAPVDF
Arbovirus anti: blocks arbovirus infection. inhibition, % at 10 µM. arbovirus infection cell-based antiviral screen. AID 1251. hit rate 0.37% among 200,000;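 active means inhibition from about 30%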;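 further: bluetongue infection of BSR cells; cell survival read as ATP light after 72 h; 0% = infected wells without compound and 100% = uninfected wells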
Arbovirus anti repeat: second read-out of Arbovirus anti, no call of its own (marks repeat the call); inhibition, %; measured here: 10K subset replicate screen; many hits read low in the repeat;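 first of two repeat runs on a subset; 0% = infected and 100% = uninfected wells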
* marks the source's active call; other numbers are inactive results; ? = inconclusive; . = not tested or not shown; & = joins results of further samples.

SMILES	Mtb growth	Mtb betalactam	YopH PTP inh	RecA intein inh	Arbovirus anti	others
CCC(C)Nc1nc(-c2ccc3c(c2)NC(=O)CO3)cs1 (stereo not drawn)	9%	92	8	4.1	-27
O=C(NC1CCCC1)C(c1ccncc1)N(C(=O)Cn1nnc(-c2ccccc2F)n1)c1cccc(F)c1 (stereo not drawn)	.	1	.	-3.1	.
CC(C)N(Cc1ccccc1)CC(O)COc1ccc(S(=O)(=O)N2CCOCC2)cc1Cl (stereo not drawn)	7%	-9	.	-1.4	-1
CC(C)NC(=O)COc1ccccc1C#N	4%	-1	.	-2.0	0
Cc1noc(N)c1C(=O)Nc1ccc(F)c(Cl)c1	-2%	-7	-25	0.0	8
O=C(Cc1ccccc1)NCC(=O)OCC(=O)c1ccccc1Cl	2%	9	.	0.4	-3
CC(=O)N/C(=C\c1ccccc1)C(=O)OCC(=O)c1c(N)n(CC(C)C)c(=O)n(C)c1=O	.	-7	.	-1.9	.
CCc1cc(-c2n[nH]c(C)c2-c2nc(C)cs2)c(O)cc1OC	4%	3	.	-0.5	26
CCOC(=O)c1nn(-c2cccc(C)c2)c2nnc(Cc3ccc(C)cc3)c(=O)n12	3%	-6	-28	-3.6	3
COC(=O)c1ccc(NC(=O)CSc2nc(N)c(NC(=O)c3ccc(Br)o3)c(=O)[nH]2)cc1	.	4	.	0.7	.
C[N+](C)(C)C(Cc1c[nH]c2ccccc12)C(=O)[O-] (stereo not drawn)	-6%	.	.	-2.3	.
CCOc1cc(C2NC(=O)NC(C)=C2C(=O)NCc2ccccc2)c(Cl)cc1O (stereo not drawn)	1%	-12	-12	2.9	10
COC(=O)c1cc(OC)c(OCc2cc(C(=O)OC)oc2C)c(OC)c1	-3%	23	7	12	-11
COc1ccc(CCN=c2c([N+](=O)[O-])nn(-c3cccc(C)c3)n2O)cc1OC	0%	53	.	6.3	-14
CCN(CC)C(=O)C(=O)c1cccn1-c1ccc(C#N)cc1	8%	6	.	-2.2	8
COc1ccc(NC(=O)COC(=O)Cc2ccc(Br)cc2)cc1	16%	68	.	-1.4	4
C(=N\n1cnnc1)/c1cccnc1	-6%	-10	5	-0.5	4
c1ccc(CSc2nnc3c(n2)OC(c2ccco2)Nc2ccccc2-3)cc1 (stereo not drawn)	-1%	8	-10	6.7	13	Arbovirus anti repeat=11
C#CCOCCOCCOCCNc1nc(N2CCN(C(=O)[C@H](CCCCN)n3cc(CCCC)nn3)CC2)nc(N2CCN(C(=O)[C@H](Cc3ccc(O)cc3)n3cc(CCO)nn3)CC2)n1	.	-6	-31	5.4	0
COC(=O)C(Cc1c[nH]c2ccccc12)NC(=O)c1cc(-c2ccc(OC)c(OC)c2)oc1C (stereo not drawn)	10%	9	-19	-3.3	-3
Cc1ccc(C(=O)CN2C(=O)C(C)Oc3ccccc32)cc1 (stereo not drawn)	5%	2	.	0.2	-3
O=C(OC1CCN(c2ncc(C(F)(F)F)cc2Cl)CC1)c1ccc(Cl)cc1	5%	15	-26	4.0	0
CN(C)N=Nc1ccc(S(=O)(=O)NC(Cc2ccccc2)C(=O)O)cc1 (stereo not drawn)	.	1	.	-2.1	.
CCOC(=O)C1=C(C)NC2=C(C(=O)c3ccccc32)C1c1ccc(O)cc1 (stereo not drawn)	13%	0	-8	1.9	-13
Cc1sc(N)nc1C12CC3CC(CC(C3)C1)C2	1%	-5	.	.	-1

Next section
SMILES	Mtb growth	Mtb betalactam	YopH PTP inh	RecA intein inh	Arbovirus anti	others
CSCC[C@H](NC(=O)Nc1ccc(OC(F)(F)F)cc1)C(=O)O	-7%	-5	.	-3.3	.
Cc1ccccc1NC(=O)C(NC1CCCCC1)C(C)C (stereo not drawn)	-3%	-2	.	3.9	-7
COc1cccc(-n2c(=O)c3c(C)c(C(=O)N(C)C)sc3n(CC(=O)NCCc3ccc(OC)c(OC)c3)c2=O)c1	1%	-5	.	.	4
O=C(Cc1cccs1)NCc1ccc(Cl)cc1Cl	.	5	.	0.4	.
Cc1cc(NC(=O)c2cccc([N+](=O)[O-])c2)n(-c2ccccc2)n1	0%	-7	-17	0.7	-1
COc1ccc(OC)c(NC(=O)CSc2nnc(CNC(=O)c3ccccc3F)o2)c1	.	3	.	-8.0	.
COCCNC(=O)CN1C(=O)COc2ccc(S(=O)(=O)N3CC(C)CC(C)C3)cc21 (stereo not drawn)	.	0	.	2.7	.
CC(Sc1nncs1)C(=O)NCc1ccc2c(c1)OCO2 (stereo not drawn)	5%	1	-24	0.0	3
O=C(NCc1n[nH]c(=S)n1-c1ccc(Cl)c(Cl)c1)c1ccc(S(=O)(=O)N2CCOCC2)cc1	4%	-3	.	-3.1	7
COc1ccc(NC(=S)N(CCCN2CCCC2)Cc2ccco2)cc1	1%	-1	.	-0.9	3
Cc1nn(C)cc1CNC(=O)c1cccc(Cl)c1	-85%	-2	-2	-4.1	1
N=C1C(c2nc3ccccc3[nH]2)=C(O)CN1NC(=O)c1c[nH]c2ccccc12	39%	100	.	5.9	18
CCCCC(C)n1[nH]c(=O)cc1N (stereo not drawn)	1%	-6	-27	-1.8	2
O=S(=O)(c1ccccc1)N1CCC2(CC1)OCCO2	-16%	-11	.	-2.4	3
CCOc1ccccc1N1CCN(C(=O)c2cc(C)oc2C)CC1	-15%	-11	-6	2.8	-1	Arbovirus anti repeat=0
COC(=O)c1ccc(COC(=O)c2cccnc2Cl)cc1	.	-8	.	-2.9	.
Cc1ccccc1OC1=NS(=O)(=O)c2ccccc21	-10%	5	.	2.5	-3
Cc1ccc(Sc2nc3c(c(=O)[nH]c(=O)n3C)n2CCc2ccccc2)cc1	-3%	1	-6	.	-20
CN(CC(=O)Nc1ccccc1N1CCOCC1)S(=O)(=O)c1ccc(Cl)cc1	1%	3	-16	-2.9	3
CCOC(=O)c1c(C)c(C(=O)NCc2cccs2)c(C)n1CC	1%	0	-16	-2.7	2
CCC(C(=O)N1CCN(Cc2ccc3c(c2)OCO3)CC1)n1c(=O)[nH]c2ccccc2c1=O (stereo not drawn)	.	-9	.	-2.7	.
Cc1ccccc1Nc1ncc(C#N)c(N)n1	-2%	-4	.	5.7	.
S=c1[nH]nc(C2CCCCC2)n1/N=C/c1ccccc1Cl	.	-5	.	7.0	.
COc1ccc(N(CC(=O)NCc2cccnc2)S(=O)(=O)c2ccccc2)c(OC)c1	.	1	.	0.3	.
O=C(Nc1cccc(OC(=O)c2ccc(Br)o2)c1)c1ccccc1	.	-4	.	43*	.

(list continues)
SMILES	Mtb growth	Mtb betalactam	YopH PTP inh	RecA intein inh	Arbovirus anti	others
Cc1ccc(C)n1-c1ccc(-c2ccn[nH]2)cc1	?	69	.	2.0	-3
C=CCn1c(O)c(C(C)=NCc2ccc3c(c2)OCO3)c(=O)[nH]c1=O	-8%	1	.	-1.8	.
CCOC(=O)c1cn[nH]c1C(F)(F)F	-14%	35	.	-0.2	.
COc1cc(C(=O)Nc2ccc(C)cn2)c([N+](=O)[O-])cc1OC	3%	-6	.	-0.8	3
CN(Cc1cccnc1)C(=O)CNC(=O)c1ccc(Cl)cc1Cl	5%	2	.	3.9	2
COC(=O)CCCC(NC(=S)N1CC2C[C@@H](C1)Cn1c2cccc1=O)C(=O)OC (stereo partly drawn)	.	-4	.	-0.2	.
Cn1c(O)c(C=Nc2ccccc2Sc2ccccc2)c(=O)n(C)c1=O	-4%	-2	4	-2.1	8
COCCNC(=O)C(c1ccco1)N(C(=O)Cn1nnc2ccccc21)c1ccccc1C (stereo not drawn)	-3%	-8	-36	1.7	2
Cc1cccc(NC(=O)NC2(C)CCS(=O)(=O)C2)c1 (stereo not drawn)	.	-2	.	0.7	.
CC(=O)Nc1ccc(S(=O)(=O)NNC(=O)C2CCCCC2)cc1	.	-16	.	3.3	.
Cc1cc(C)[n+]2n1C(=O)C(c1ccccc1)=C2[O-]	3%&3%	-2&2	-24	0.6&-3.5	0&16
CCCCNC(=O)Nc1c(C(=O)OC)[nH]c2ccc(C)cc12	1%	2	-13	-16	-4
CN(CC(=O)Nc1cccc(F)c1)C(=O)c1cccnc1Sc1ccc(Cl)cc1	.	-7	.	-1.6	.
Cc1n[nH]c(=O)c2c(NC(=O)CSc3nc4ccccc4c(=O)n3C(C)C)oc(C)c12	.	5	.	0.7	.
CCOC(=O)c1ccc(NC(=O)c2ccccc2[N+](=O)[O-])cc1	10%	-2	-19	-1.9	-11
COc1ccc(-c2csc(NC(=O)CSc3ncn[nH]3)n2)cc1OC	1%	71	.	-2.3	13
O=c1c(Cc2ccc(F)cc2)c(O)ccn1Cc1ccc(F)cc1	-7%	-2	.	2.0	-1
COc1ccc(/C=C(\NC(=O)c2ccccc2)C(=O)NCCN2CCOCC2)cc1OC	.	0	.	-0.9	.
CCOc1ccccc1N(C(=O)c1snc(C(N)=O)c1N)C(C(=O)NC1CCCC1)c1cccs1 (stereo not drawn)	.	32	.	-1.5	.
CCc1ccc(N(C(=O)c2snc(C(N)=O)c2N)C(C(=O)NC2CCCC2)c2ccco2)cc1 (stereo not drawn)	.	5	.	5.3	.
CC(C)(CO)CNC(=O)CC1C(=O)NCCN1CC(c1ccccc1)c1ccccc1 (stereo not drawn)	2%	1	.	0.2	32*
CCOc1ccc(NC(=O)Cn2nnc(C(=O)NCc3ccc4c(c3)OCO4)c2N)cc1	.	1	.	-1.2	.
Cc1cccc(C(=O)NC(=S)Nc2cccc3nc(C)ccc23)c1	.	57	.	3.1	.
O=C(CN(Cc1ccccc1)C(=O)CNS(=O)(=O)c1ccc(F)cc1)NCC1CCCO1 (stereo not drawn)	.	-2	.	1.9	.
O=C(CNCc1cccs1)Nc1ccc(S(=O)(=O)N2CCCCC2)cc1	8%	-5	.	-1.9	26

Next section, starting with the last three of the part before.
SMILES	Mtb growth	Mtb betalactam	YopH PTP inh	RecA intein inh	Arbovirus anti	others
Cc1cccc(C(=O)NC(=S)Nc2cccc3nc(C)ccc23)c1	.	57	.	3.1	.
O=C(CN(Cc1ccccc1)C(=O)CNS(=O)(=O)c1ccc(F)cc1)NCC1CCCO1 (stereo not drawn)	.	-2	.	1.9	.
O=C(CNCc1cccs1)Nc1ccc(S(=O)(=O)N2CCCCC2)cc1	8%	-5	.	-1.9	26
O=C(NCCS(=O)(=O)N1CCN(c2cccc(Cl)c2)CC1)c1ccc2c(c1)OCO2	.	0	.	-2.1	.
Cc1ccc(C(=O)Oc2cc(C)[nH]c(=O)c2[N+](=O)[O-])cc1	.	1	.	-0.1	9
CN(C)c1ccc(N=Nc2ccccc2C(=O)OCC(=O)Nc2ccccc2C(F)(F)F)cc1	?	.	-6	-0.2	-3
S=C(NCc1cccs1)NCC1CCCO1 (stereo not drawn)	2%	.	.	-4.0	5
C/C(=N\N1CCN(Cc2ccc(C)cc2)CC1)c1ccco1	-6%	-3	-17	1.4	0
CCN(CC#CCC1(O)c2ccccc2-c2ccccc21)C(C)C	.	3	-17	-1.7	17
COc1cccc(NC(=O)Cn2nc(Cc3cccnc3)c3ccccc3c2=O)c1	-3%	5	-21	1.0	-9
O=S(=O)(Nc1ccc2ccccc2n1)c1ccc2c(c1)CCO2	-7%	-1	.	0.4	.
Cc1ccc(S(=O)(=O)NCCC(=O)NCc2ccco2)cc1	-4%	-1	-17	0.7	2
CC1=NN(c2ccccc2)C(=O)/C1=C/c1cccc(C)c1	.	-1	.	92*	.

Among those listed so far, 10 have fluorine:
SMILES	Mtb growth	Mtb betalactam	YopH PTP inh	RecA intein inh	Arbovirus anti	others
O=C(NC1CCCC1)C(c1ccncc1)N(C(=O)Cn1nnc(-c2ccccc2F)n1)c1cccc(F)c1 (stereo not drawn)	.	1	.	-3.1	.
Cc1noc(N)c1C(=O)Nc1ccc(F)c(Cl)c1	-2%	-7	-25	0.0	8
O=C(OC1CCN(c2ncc(C(F)(F)F)cc2Cl)CC1)c1ccc(Cl)cc1	5%	15	-26	4.0	0
CSCC[C@H](NC(=O)Nc1ccc(OC(F)(F)F)cc1)C(=O)O	-7%	-5	.	-3.3	.
COc1ccc(OC)c(NC(=O)CSc2nnc(CNC(=O)c3ccccc3F)o2)c1	.	3	.	-8.0	.
CCOC(=O)c1cn[nH]c1C(F)(F)F	-14%	35	.	-0.2	.
CN(CC(=O)Nc1cccc(F)c1)C(=O)c1cccnc1Sc1ccc(Cl)cc1	.	-7	.	-1.6	.
O=c1c(Cc2ccc(F)cc2)c(O)ccn1Cc1ccc(F)cc1	-7%	-2	.	2.0	-1
O=C(CN(Cc1ccccc1)C(=O)CNS(=O)(=O)c1ccc(F)cc1)NCC1CCCO1 (stereo not drawn)	.	-2	.	1.9	.
CN(C)c1ccc(N=Nc2ccccc2C(=O)OCC(=O)Nc2ccccc2C(F)(F)F)cc1	?	.	-6	-0.2	-3

Bioassay records deposited in PubChem BioAssay by several laboratories.

Only part of the results is shown (hit frequency here may not be typical).
